From PubChem
KCNQ2 enhance: enhances the rat KCNQ2 potassium channel. CHO-K1 KCNQ2, FluxOR thallium flux fluorescence; stronger effect = higher value. B-score at 10 µM. 310,000 tested, 0.54% active. AID 2239;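 active = fluorescence ratio B-score at least 3 SD of library B-scores, with initial fluorescence B-score within 3 SD, cut at about 5.3 in these data; same plate scores as AID 2156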;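 also: B-score of peak minus minimum over baseline fluorescence ratio after K+ and Tl+ stimulus; positive B-score means potentiation of KCNQ2 with more thallium influx and brighter signal; only the inactives scoring about 0 or higher are listed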
Target sequence (O88943 whole entry, looked up): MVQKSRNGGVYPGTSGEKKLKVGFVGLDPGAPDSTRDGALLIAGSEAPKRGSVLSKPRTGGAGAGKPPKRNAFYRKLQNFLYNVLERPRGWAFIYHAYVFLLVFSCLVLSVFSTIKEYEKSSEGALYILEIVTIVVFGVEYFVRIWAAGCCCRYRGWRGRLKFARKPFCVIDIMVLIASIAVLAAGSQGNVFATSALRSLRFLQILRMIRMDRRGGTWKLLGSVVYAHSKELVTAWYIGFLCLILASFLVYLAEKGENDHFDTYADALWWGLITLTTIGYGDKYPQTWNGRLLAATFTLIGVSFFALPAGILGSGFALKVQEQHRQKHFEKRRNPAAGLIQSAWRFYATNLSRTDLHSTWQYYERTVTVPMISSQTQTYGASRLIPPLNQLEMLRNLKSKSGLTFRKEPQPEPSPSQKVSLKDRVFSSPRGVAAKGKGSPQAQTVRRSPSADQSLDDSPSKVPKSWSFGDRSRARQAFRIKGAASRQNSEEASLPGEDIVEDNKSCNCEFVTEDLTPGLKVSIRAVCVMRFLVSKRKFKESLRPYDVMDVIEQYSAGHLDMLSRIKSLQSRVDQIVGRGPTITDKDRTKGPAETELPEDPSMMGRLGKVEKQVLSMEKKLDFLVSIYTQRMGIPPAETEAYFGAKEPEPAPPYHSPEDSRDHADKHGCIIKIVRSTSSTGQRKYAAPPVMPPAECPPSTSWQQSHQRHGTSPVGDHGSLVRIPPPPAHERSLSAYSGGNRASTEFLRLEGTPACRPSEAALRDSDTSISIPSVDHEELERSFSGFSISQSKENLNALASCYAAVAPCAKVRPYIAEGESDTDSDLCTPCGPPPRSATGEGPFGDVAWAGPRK
KCNQ2 enhance baseline: also measured in KCNQ2 enhance; calls as there; B-score; compound at 10 µM; measured here: initial fluorescence intensity artifact check;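 brightness before thallium and not channel activity; 0 = typical well and far values either way flag optical interference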
Starred values were filed as active, the others as inactive; x = no result given.

KCNQ2 enhance | KCNQ2 enhance baseline | molecule
1.03 | 1.14 | C=C(C)C1CC=C(C)/C(=N/NC(=O)COc2ccc(C)cc2)C1 (centres undefined)
0.11 | -0.91 | CCc1ccc(CN2CCN(c3ncccn3)CC2)cc1
0.01 | 1.4 | COc1ccccc1C(=O)C1CCCN(C(=O)c2cccnc2SC)C1 (centres undefined)
0.1 | -0.35 | CC1CN(C2=CC(=O)CCC2)CC(C)O1 (centres undefined)
1.51 | -0.92 | CCOc1cccc(CNc2ccc(O)cc2)c1OCc1ccccc1Cl
0.03 | 0.25 | CCOC(=O)c1ccc(NC(=S)N2CCN(S(C)(=O)=O)CC2)cc1
1.77 | 0.08 | Cc1ccc2nc(-c3ccc4c(c3)NC(=O)CO4)cn2c1
1.19 | 0.03 | CCOC(=O)CNC(=O)CSc1ccc2nnc(-c3cccnc3)n2n1
-5.55 | x | CCOc1ccccc1NC(=O)c1cccc2ccccc12
0.36 | 0.53 | COCCN1C2=C(C(=O)CC(C)(C)C2)C(c2ccc(O)c(OC)c2)C2=C1CC(C)(C)CC2=O
0.01 | -0.41 | COc1ccc(OC)c(NC(=O)CS(=O)(=O)Cc2ccccc2)c1
1.45 | 2.62 | CCN(CC)S(=O)(=O)c1ccc(Cl)c(C(=O)OCC(=O)c2c(N)n(C)c(=O)n(C)c2=O)c1
1.26 | -0.15 | C/C(=N\NC(=O)c1ccccc1C)c1ccc(NC(=O)c2cccs2)cc1
0.93 | 0.09 | COc1ccc(S(=O)(=O)N(C)CC(=O)N2CCC(C(N)=O)CC2)cc1Cl
0.49 | 2.24 | Cc1sc2nc3n(c(=O)c2c1C)CCCS3
0.06 | -1.91 | CS(=O)(=O)N(CC(=O)N1CCc2ccccc2C1)c1cccc([N+](=O)[O-])c1
0.74 | -0.71 | Cc1cccc(C)c1NC1=NC(=S)N(c2ccc(N(C)C)cc2)C1(C)C
0.36 | 1.43 | COc1ccc(C2=NOC(Cn3nc(C(=O)O)cc3-c3ccccc3)C2)cc1 (centres undefined)
0.75 | 1.03 | O=C(NCCO)C(=O)c1c(-c2ccccc2)cc2ccccn12
1.61 | 0.12 | Cc1ccc(-c2cn(-c3ccc(OC(F)F)cc3)c3[n+]2CCCCC3)cc1
1.21 | -0.54 | CCCN1CCN(C(=O)c2c(Cl)cnn2C)CC1
0.22 | -0.07 | COC(=O)c1ccc(NC(=S)NNC(=O)c2ccccc2)cc1
1.45 | -0.81 | CCOC(=O)c1cc(-c2ccccc2)sc1NC(=S)Nc1cccc(C)n1
1.86 | -0.01 | CCOC(=O)c1cnc2c(CC)cccc2c1NCCCN1CCOCC1
0.31 | 0.81 | C=CCOC(=O)C1=C[C@@H](c2coc3ccccc3c2=O)C[C@@H](OCCCCO)O1
0.37 | 0.02 | CCOC(=O)Cc1csc(SCC(=O)Nc2cccc(C#N)c2)n1
0.08 | -0.15 | CC(=Nc1ccccc1)C1=C(O)CC(C)(C)CC1=O
2.53 | 0.19 | CC(C)Oc1ccc(-c2cc(=O)[nH]c(=O)[nH]2)cc1
0.09 | -0.96 | O=C(CCc1ccccc1)NNC(=O)C1CCCCC1
0.45 | -0.82 | COc1ccc(C(=O)Nc2cnn(Cc3ccc(Cl)cc3)c2)cc1OC

Going on with the list.
KCNQ2 enhance | KCNQ2 enhance baseline | molecule
5.49* | 0.29* | CCNC(=S)Nc1nc2c(cc1C(=O)OCC)CCCC2
0.78 | -0.79 | Cc1ccc(C(c2nnnn2CCc2ccccc2)N2CCSCC2)cc1 (centres undefined)
0.16 | -1.78 | C=CCn1c(COC)nnc1SCC(=O)c1ccc(F)cc1
0.15 | 0.12 | CCOc1ccc(NC(=O)c2cccnc2C(=O)O)cc1
1.32 | -0.08 | O=C(Nc1cccc(S(=O)(=O)Nc2ccc(Cl)cc2)c1)c1ccc(Cl)nc1
0.8 | 0.07 | CCOc1ccc(-c2c(=O)n(OCC)c3ccccc3[n+]2[O-])cc1
1.42 | -0.13 | N#CCC(=O)Nc1ccc(C(=O)NCc2ccccn2)cc1
0.02 | -0.98 | CC(=O)n1nc2nc(C)cc(C)c2c1N
0.66 | -2 | CCOc1ccc(NC(=O)C(=O)NCCN2CCN(C(=O)c3ccc(C)cc3)CC2)cc1
0.02 | -1.37 | Cc1cccc(NCc2ccc(N(C)C)cc2)n1
1.31 | 0.08 | O=P(c1ccccc1)(c1ccccc1)C(c1ccccn1)P(=O)(c1ccccc1)c1ccccc1
0.01 | 3.67 | CCC(=O)Nc1cccc(NC(=O)c2ccc(Br)cc2)c1
0.95 | -0.82 | CCC(CC)C(=O)c1c[nH]c(C(=O)NCc2ccccc2OC)c1
1.65 | 1.37 | CC1CCN(S(=O)(=O)c2ccc(C(=O)OCc3ccc4c(c3)OCO4)cc2)CC1
1.69 | -1.02 | COC(=O)c1ccccc1N=Nc1c(N)[nH][nH]c1=O
0.17 | -0.57 | O=C(N/N=C/c1ccc2c(c1)OCO2)c1cccc2ccccc12
0.9 | 1.78 | Cc1ccc(NC(=O)CSc2ccc3nnc(-c4ccccn4)n3n2)cc1
0.02 | 0.36 | CCOc1ccc(N(CC(=O)NCc2ccco2)C(=O)CCC(=O)Nc2ccccn2)cc1
0.25 | 3.96 | O=C(NCc1ccc(F)cc1)C(=O)Nc1nc(C23CC4CC(CC(C4)C2)C3)cs1
0.81 | 1.69 | O=C1CSC(c2cccc([N+](=O)[O-])c2)N1Cc1ccccc1 (centres undefined)
0.65 | 1.13 | COCCC(=O)N1CCC(Oc2ccc(C(=O)N(C)CCCC3CCCC3)cc2)CC1
1.46 | 0.73 | O=C1CC(c2cccc(Cl)c2)c2cc3c(cc2N1)CCC3 (centres undefined)
1.94 | -0.53 | CC(C)NC(=O)c1ccc(CS(=O)(=O)c2ccc(Br)cc2)o1
1.96 | 0 | Cc1ccc(/C=N/n2c(C)cc(C)c(C#N)c2=O)cc1
0.83 | -0.77 | Cc1nc2ccccc2n1C1CCN(CC(=O)Nc2ccccc2Br)CC1
6.23* | -0.61* | COc1ccc(C(=O)Nc2ncc3c(n2)-c2ccccc2CC3)cc1
1.22 | -2.6 | COc1cc(C2=NOC(C(=O)NCc3ccc(F)cc3)C2)cc(OC)c1OC (centres undefined)
4.65 | -0.18 | Cc1ccccc1C(=O)c1cccn1CC(=O)NC(C)c1ccc2c(c1)OCCO2 (centres undefined)
4.67 | -1.21 | O=C(Cc1cccs1)N=Nc1c(O)[nH]c2ccc(Br)cc12
0.52 | -0.9 | Cc1nc(N2CCC3(CC2)OCCO3)c2nnn(Cc3ccccc3F)c2n1

One compound at a time (already shown). Values in the order: KCNQ2 enhance | KCNQ2 enhance baseline
Listed for Cc1ccc(NC(=O)CSc2ccc3nnc(-c4ccccn4)n3n2)cc1 → 0.9 | 1.78
Listed for CCC(CC)C(=O)c1c[nH]c(C(=O)NCc2ccccc2OC)c1 → 0.95 | -0.82
Listed for CCOc1ccc(NC(=O)C(=O)NCCN2CCN(C(=O)c3ccc(C)cc3)CC2)cc1 → 0.66 | -2
Listed for CCC(=O)Nc1cccc(NC(=O)c2ccc(Br)cc2)c1 → 0.01 | 3.67
Listed for O=C(NCc1ccc(F)cc1)C(=O)Nc1nc(C23CC4CC(CC(C4)C2)C3)cs1 → 0.25 | 3.96

Other results
KCNQ2 enhance | KCNQ2 enhance baseline | molecule
0.48 | -0.37 | COc1ccc(NC(=O)C(=O)c2cn(CC(=O)N3CCCC3)c3ccccc23)cc1
0.62 | -1.37 | O=[N+]([O-])c1ccc(N=Cc2ccc(Br)c([N+](=O)[O-])c2)cc1
0.25 | 1.11 | COCCn1cnnc1SCC(=O)Nc1cc(OC)c([N+](=O)[O-])cc1C
0.78 | -1.88 | CS(=O)(=O)c1ccc(C(=O)NCC2(N3CCCCC3)CCCCC2)cc1
0.15 | -0.51 | CCOC(=O)N1CCN(CC(O)COc2c(C)cccc2C)CC1 (centres undefined)
0.36 | 1.28 | CCOC(=O)c1c(C)[nH]c(C(=O)N2CCN(CC)CC2)c1C
1.01 | 1.48 | COC(=O)NC(=S)Nc1ccc(Oc2ccc(Cl)cc2Cl)c(Cl)c1
0.08 | -1.92 | CC1CCCC(NC2CCCCNC2=O)C1 (centres undefined)
0.49 | -0.04 | COC(=O)c1c(C)oc(C)c1S(=O)(=O)Nc1ccc(C(C)C)cc1
1.21 | -0.29 | CC1CC(=O)Nc2ccccc2N1C(=O)Nc1ccc(F)cc1F (centres undefined)
1.75 | -0.72 | CN(C)Cc1cc(CCNC(=O)c2ccc(Cl)cc2)ccc1O
0.88 | 0.95 | NC(=O)c1ccccc1OCC(=O)c1ccc(Cl)cc1
2.33 | -1.51 | Cc1cc(SCCOc2ccccc2)nc(N)n1
0.25 | 0.45 | CC(C)NCC(O)COc1ccc(COCCOC(C)C)cc1 (centres undefined)
16.5* | -1.59* | CNS(=O)(=O)/C=C/c1ccccc1
0.94 | 0.96 | O=C(NCc1ccc(F)cc1)NC(=O)c1ccc(Cl)cc1
0.18 | -0.48 | CCC(C)[C@@H](C(=O)NCC1CCC(C(=O)O)CC1)n1nnc2ccccc2c1=O (some centres undefined)
0.12 | 0.45 | O=C1CSC(c2ccc([N+](=O)[O-])cc2)N1c1ccccc1F (centres undefined)
0.09 | -0.81 | COc1ccc([N+](=O)[O-])cc1C(=O)Nc1ccc(OCC(=O)N2CCOCC2)cc1
0.02 | 0 | COc1ccc(-c2csc(NC(=S)NC(=O)/C=C/c3ccco3)n2)cc1Br
1.39 | -0.11 | C=CCn1c(=N)n(CC(=O)c2ccccc2)c2ccccc21
0.7 | 0.11 | CS(=O)(=O)c1ccc2nc(NC(=O)Nc3ccc(Cl)c(Cl)c3)sc2c1
0.18 | 0.55 | COc1ccc(N2C(=S)N=C(Nc3cccc(C)c3)C23CCCCC3)cc1
0.36 | 0.05 | COc1ccc(-c2cc(=O)c3cc(OC)ccc3o2)cc1
0.03 | -1.12 | CN(C)c1ccc(C(=O)OCC(=O)NC2CCCCC2)cc1
0.21 | -0.21 | O=C1N=C(N2CCCC2)CN1c1ccccc1
0.59 | -1.6 | CC(C)n1c(N2CCN(S(=O)(=O)c3cccc([N+](=O)[O-])c3)CC2)nc2ccccc21
1.53 | -2.87 | COc1ccc(CNC(=O)CN(Cc2ccco2)C(=O)CCC(=O)Nc2ccccn2)cc1
1.19 | -0.36 | O=C(Nc1nccs1)C1CC(=O)N(c2ccc(F)cc2)C1 (centres undefined)
0.67 | -0.06 | Fc1cccc(F)c1/C=N/N1CCOCC1

A section from the list above:
KCNQ2 enhance | KCNQ2 enhance baseline | molecule
0.48 | -0.37 | COc1ccc(NC(=O)C(=O)c2cn(CC(=O)N3CCCC3)c3ccccc23)cc1
0.62 | -1.37 | O=[N+]([O-])c1ccc(N=Cc2ccc(Br)c([N+](=O)[O-])c2)cc1

Remaining list, next part.
KCNQ2 enhance | KCNQ2 enhance baseline | molecule
0.69 | -0.34 | N#C/C(=C\N1CCOCC1)S(=O)(=O)c1ccc(Cl)cc1
0.01 | -0.43 | CN(C)c1cncc(C(=O)O)c1
0.28 | 0.59 | Cc1ccc(C)c(OCCCCN2CCNCC2)c1C
0.02 | -0.5 | O=C(c1ccccc1)N1CCN(c2ncnc3sc4c(c23)CCC4)CC1
0.53 | -1.59 | COC(=O)c1sccc1N/C=C(\C#N)S(=O)(=O)C(C)(C)C
1.21 | 3.67 | CCOCC(=O)Nc1cc(C(F)(F)F)ccc1Oc1cccc(Br)c1
1.17 | -0.85 | COc1ccc2nc(NS(=O)(=O)c3ccc(NC(C)=O)cc3)sc2c1
0.78 | 0.48 | CCCC(=O)NC(c1ccc(OC)c(OC)c1)c1c(O)ccc2ccccc12 (centres undefined)
1.08 | -2.52 | Cc1ccc(C(=O)O/N=C2\CCS(=O)(=O)c3sccc32)cc1
1.28 | 1.41 | O=C(Cc1cccc2ccccc12)NNC(=O)c1ccc(Br)o1
2.65 | -1.32 | COc1cccc(CN2CCN(C(=O)Nc3ccc([N+](=O)[O-])cc3)CC2)c1
0.31 | -0.43 | O=C(Nc1ccc(F)cc1)Nc1ccc2ccccc2n1
2.61 | -0.03 | O=C(COc1ccccc1)Nc1cccc(-c2ccc(N3CCOCC3)nn2)c1
1.47 | 1.01 | Cc1ccc(CNC(=O)C2CCC(=O)N2C2CCCCC2)cc1 (centres undefined)
1.06 | 0.71 | Cc1ccc(NC(=O)c2ccc(Cl)cc2Cl)cc1O
0.61 | -0.76 | COc1ccccc1C(=O)N=c1sc2c(C)ccc(OC)c2n1C
0.47 | -0.04 | COc1ccc(S(=O)(=O)NCCC(=O)NC(C)c2ccccc2)cc1 (centres undefined)
0.36 | -0.8 | Cc1ccc(NS(=O)(=O)c2cccc(C(=O)O)c2)cc1S(=O)(=O)N1CCOCC1
0.36 | -2.22 | O=C(CN1C(=O)S/C(=C\c2ccc(C(=O)O)cc2)C1=O)Nc1ccccc1
1.59 | -1.13 | O=c1c2cnn(-c3ccc(F)cc3)c2ncn1Cc1cccnc1
0.47 | -1.64 | CC1(C)CC(=O)C2=C(C1)Nc1ccccc1NC2c1ccc(F)cc1 (centres undefined)
1.64 | -1.36 | CCc1ccc(/C(C)=N/NC(=O)C(O)c2ccccc2)s1 (centres undefined)
0.54 | 0.21 | CCC(=O)N1C(Cc2ccccc2)COC1(C)C (centres undefined)
1.57 | -0.41 | O=C(Cc1ccccc1)NC(NCCCN1CCOCC1)(C(F)(F)F)C(F)(F)F
1.42 | -0.57 | O=C(NC1CCc2ccccc21)C1CCN(S(=O)(=O)c2ccc(-n3cnnn3)cc2)CC1 (centres undefined)
0.67 | -0.25 | COc1cccc(OC)c1C(=O)NC(C)CCc1ccccc1 (centres undefined)
0.64 | 1.94 | O=C(O)COCC(=O)Nc1cc(C(F)(F)F)cc(C(F)(F)F)c1
0.66 | -0.41 | COCCCNC(=O)CSc1nc2cc3c(cc2c(=O)n1CCCC(=O)NCc1ccc(OC)cc1)OCO3
1.14 | -0.38 | CC(C)c1ccc(NC(=O)C2CC(=O)N(C(C)C)C2)cc1 (centres undefined)
0.53 | -1.32 | CCN1C2OC3OC4C(OC3OC2N(CC)S1(=O)=O)N(CC)S(=O)(=O)N4CC (centres undefined)
0.4 | 1.36 | O=C(COc1ccc2c(-c3ccccc3)cc(=O)oc2c1)Nc1cccnc1

These rows are one share of the data; rates above refer to the full screens.
